Choline anaer gr: choline-fed anaerobic bacterial growth inhibition | AID 1963822 | 55,000 compounds, 0.2% hits | Gram-negative bacterium anaerobic choline minimal medium, absorbance growth; hits give low values; many inactives read as strong as hits in the columns shown | calls only;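 active = growth z-score on choline under -2 at 7 or 20 h with little or no fall on glycerol, limits in tiers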;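 note: stock transfer was 300 nL into about 50 µL; the organism is E. coli; final concentration not given here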
Choline anaer gr early: recorded beside Choline anaer gr, whose call it bears; z-score; measured here: choline growth z-score, timepoint 1;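 score of optical density at 7 h as mean of two plates; lower means less growth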
The depositor's hits bear a star; i = inactive; + = active, no number; & = joins results of further samples. The list is partial; count on the stated rates, not on these rows.

SMILES	Choline anaer gr	Choline anaer gr early
Cc1ccc2cc3c(nc2c1)N(C(=O)c1ccc(S(=O)(=O)N(C)C)cc1)CC3	i	-0.05
CC(C)C(=O)Nc1ccc(Sc2nc3ccccc3n3nnnc23)cc1	i	-0.59
COc1cc(NC(=O)c2cc3c(C)nn(-c4ccc(Cl)cc4)c3s2)cc(OC)c1	i	-0.95
CC1CCCCN1C(=O)Nc1cn(C)c(=O)c2ccccc12 (stereo unspecified)	i	0.98
O=C(O)CCC(C(=O)O)N1C(=O)c2ccccc2C1=O (stereo unspecified)	i	0.13
Cc1cc(N2CCN(c3ccccc3)CC2)nc(-n2nc(C)cc2C)n1	i	-2.02
O=c1c2ccccc2c(-c2nc(-c3ccccn3)no2)nn1-c1ccccc1	i	-0.32
C=CCn1nc2ccc(S(=O)(=O)N3CCC(C)CC3)cn2c1=O	i	0.43
O=C(NC1CCCCC1)c1ccc(Cn2cnc3cccnc32)cc1	i	-2.22
Cc1c(C(=O)N(C)C2CCCCC2)sc2ncnc(N3CCN(C)CC3)c12	i	0.65
CC1(C)CC(=O)c2cc(C(=O)N3CCN(c4ccc(Cl)cc4)CC3)c(=O)n(-c3ccc(Cl)cc3)c2C1	i	0.2
COc1ccc(-c2cc3c(N4CCC(C(=O)N5CCN(c6ccccc6)CC5)CC4)nccn3n2)cc1	i	-0.14
COc1cccc(NC(=O)c2cnc3sccn3c2=O)c1	i	-0.79
COc1ccc(CNC(=O)C(C)n2ccc3c(C)nn(C)c3c2=O)c(OC)c1 (stereo unspecified)	i	-0.02
NC(CO)(CO)CO	i	0.26
O=C(NCc1ccc2c(c1)OCO2)c1cccc(N2C(=O)CCS2(=O)=O)c1	i	0.24
CCOC(=O)CC1C(=O)NCCN1CC1CCCCC1 (stereo unspecified)	i	-0.67
Cc1c(C(=O)OCc2ccc(Cl)cc2)nnn1-c1ccc(Br)cc1	i	0.35
COc1ccc(OC)c(NC(=O)c2cc(S(=O)(=O)N3CCCC(C)C3)cn2C)c1 (stereo unspecified)	i	1.04
CS(=O)(=O)Nc1ccc(N2CCN(c3ccccc3)CC2)c(C(=O)O)c1	i	0.58
O=C(CSc1nnc(-c2ccc3c(c2)OCO3)o1)NCC1CCCO1 (stereo unspecified)	i	0.48
CC1(C(=O)NC2CCCCC2)Cn2c(cc3occc32)C(=O)N1CCN1CCCC1 (stereo unspecified)	i	-0.56
O=c1[nH]cc(S(=O)(=O)N2CCc3ccccc3C2)c(=O)[nH]1	i	0.33
Cc1cc(N(C)C)nc(N2CCN(S(C)(=O)=O)CC2)n1	i	-1.24
Cc1nnc(-c2ccc(S(=O)(=O)NC3CCCCC3)o2)o1	i	0.6
(next part)
SMILES	Choline anaer gr	Choline anaer gr early
CCCSc1nc2c(c(=O)[nH]1)C(c1ccccc1)C(C(=O)OC)=C(C)N2 (stereo unspecified)	i	0.14
Cc1ccccc1OCc1cc(=O)n2c(C)csc2n1	i	0.94
CCSc1nn(CC(=O)Nc2ccc(C(C)C)cc2)c(N)c1S(=O)(=O)c1ccc(Cl)cc1	i	-0.22
Cc1cc(C)c(S(=O)(=O)Nc2ccc(-c3ccc(N4CCOCC4)nn3)cc2)c(C)c1	i	-0.58
CCCCC1CCC(C(=O)NCC2(N3CCOCC3)CCCCC2)CC1 (stereo unspecified)	i	-2.83
CC(C)(Oc1ccc(CCNC(=O)c2ccc(Cl)cc2)cc1)C(=O)O	i	0.15&0.21&0.29&-1.46&0.69
Cc1csc(-c2cc(S(=O)(=O)N(C)c3ccc(C)c(C)c3)c(C)s2)n1	i	-0.6
COc1ccc(-c2noc(CSCC(=O)N3CCNC3=O)n2)cc1OC	i	-0.96
Cn1cc(C(=O)N2CCCCC2)c2nn(-c3ccccc3)c(=O)c-2c1	i	-1
COc1ccc(-c2nc3ccccc3nc2-c2ccc(OC)cc2)cc1	i	0.68
O=C(Cc1ccc(NC2=NC3CS(=O)(=O)CC3S2)cc1)NCc1ccccn1 (stereo unspecified)	i	-1.27
CN(C)C(=O)c1ccc2c(c1)N(CC(=O)O)C(=O)CO2	i	0.29
O=C1Nc2cc(S(=O)(=O)NCCC3=CCCCC3)ccc2SC1C(=O)N1CCCC1 (stereo unspecified)	i	-0.12
O=C(c1cccc(F)c1)N1CCN(c2ccc(NCc3ccccc3)nn2)CC1	i	-0.06
COc1cc2c(N3CCN(C(=O)Nc4ccc(OC(C)C)cc4)CC3)ncnc2cc1OCCCN1CCCCC1	i	0.61
CCNCc1ccc(OCc2ccc3c(c2)n(C)c(=O)n3C)c(OC)c1	i	0.02
COc1ccc(C2C(C(=O)Nc3ccc4c(c3)OCCO4)c3ccccc3C(=O)N2c2ccc(OC)cc2)cc1 (stereo unspecified)	i	1.94
O=C(CN1C(=O)CSc2ncccc21)NCc1cccc(Br)c1	i	-0.19
O=C(C1CCN(c2ccc(F)cc2)C1=O)N1CCCCC1 (stereo unspecified)	i	-0.01
CC1CCCN(Cc2nc(-c3ccc(N4CCSCC4)nc3)no2)C1 (stereo unspecified)	i	-1.81
CC(C)CCNC(=O)C1CCN(C(=O)N2CCOc3ccc(Cl)cc32)CC1	i	-1.88
CCOC(=O)c1cc(-c2ccc(OC)c(S(=O)(=O)Nc3cccc(Cl)c3C)c2)on1	i	1.56
CCOC(=O)c1oc2ccc(S(=O)(=O)Nc3noc4ccccc34)cc2c1C	i	-0.57
Cc1nc(-c2ccc(Cl)cc2)sc1-c1cc(=O)[nH]c(SCC(=O)Nc2ccccc2)n1	i	-1.85
COc1ccc(NC(=O)CCc2c(C)nn3cnnc3c2C)cc1OC	i	-0.54
The listing continues:
SMILES	Choline anaer gr	Choline anaer gr early
O=C(COCc1cc(-c2ccc3c(c2)OCO3)on1)Nc1cccnc1	i	-1.8
COc1cc(=O)n(-c2ccc(C)cc2)nc1C(=O)Nc1ccccc1	i	-0.14
CCn1cc(CNC(=O)c2cc(-c3cc(OC)ccc3OC)nc3ccccc23)c(C)n1	i	-1.09
COc1ccc(Cl)cc1NS(=O)(=O)c1cc(-c2nc(C)c(C)s2)sc1C	i	0.04
COc1ccc(CNC(=O)Cn2c(=O)n3nc(-c4ccccc4)nc3c3ccccc32)cc1OC	i	-2.17
CC(C)OCCCNc1ccc2nnc(CCNC(=O)c3ccccc3F)n2n1	i	-0.46
O=C(c1ccccc1Cl)N1CCN(c2ncnc3c2c(-c2ccccc2)cn3-c2ccccc2)CC1	i	0.77
C=CCN1CC(c2nc3ccccc3n2CC(O)COc2cc(C)cc(C)c2)CC1=O (stereo unspecified)	i	-0.84
CCc1ccc(NC(=O)C2CCCN(c3nccc4sc(C)cc34)C2)cc1 (stereo unspecified)	i	-0.51
CCCCc1ccc(NC(=O)Cn2nc3c(Sc4ccccc4)nccn3c2=O)cc1	i	0.75
COc1ccc(-n2c(CN3CCNCC3)nc3cccnc32)cc1	i	-0.09
COc1ccc2nc(N3CCN(C(=O)C4=COCCO4)CC3)sc2c1	i	-0.03
O=C(CCc1nc(CS(=O)(=O)c2ccccc2)no1)NC1CC1	i	-0.73
O=C(NCc1ccccc1Cl)c1ccc2c(c1)nc1n2CCOC1	i	-1.63
O=C(Nc1ccc2c(c1)OCCO2)c1ccc(S(=O)(=O)c2ccc(Cl)cc2)nc1	i	1.52
CCCn1c(=O)[nH]c2cc(-c3noc(C(C)NS(=O)(=O)c4ccc(C)cc4)n3)ccc21 (stereo unspecified)	i	-0.83
O=C(c1cc2occc2c(Nc2ccc(F)cc2)n1)N1CCN(C2CCCCC2)CC1	i	-0.11
Cc1nn(Cc2c(F)cccc2Cl)c(=O)c2noc(C)c12	i	-0.59
Cc1cc(NC(=O)c2ccc(OC(C)C)cc2)n(-c2ncnc3c2cnn3-c2ccccc2)n1	i	0.38
CCOC(=O)c1cc2ccsc2n1CC(=O)Nc1ccccc1C(=O)OC	i	0.37
O=C(c1cnc(N2CCN(c3ncccn3)CC2)c2ccccc12)N1CCN(c2ccccn2)CC1	i	0.4
O=C1Nc2ccccc2Oc2ccc(S(=O)(=O)N3CCc4ccccc4C3)cc21	i	0.05
O=S(=O)(c1cc(-c2noc(C3CCC3)n2)cs1)N1CCC2(CC1)OCCO2	i	1.17
COc1cccc(Sc2ccc(N3CCCC(C(=O)NC(C)C)C3)nn2)c1 (stereo unspecified)	i	-0.5
CC1CS(=O)(=O)N(c2ccc(C(=O)NCCc3c[nH]c4ccccc34)cc2)C1=O (stereo unspecified)	i	-1.01

As a short view, 15 of the compounds above:
SMILES	Choline anaer gr	Choline anaer gr early
C=CCN1CC(c2nc3ccccc3n2CC(O)COc2cc(C)cc(C)c2)CC1=O (stereo unspecified)	i	-0.84
CCc1ccc(NC(=O)C2CCCN(c3nccc4sc(C)cc34)C2)cc1 (stereo unspecified)	i	-0.51
CCCCc1ccc(NC(=O)Cn2nc3c(Sc4ccccc4)nccn3c2=O)cc1	i	0.75
COc1ccc(-n2c(CN3CCNCC3)nc3cccnc32)cc1	i	-0.09
COc1ccc2nc(N3CCN(C(=O)C4=COCCO4)CC3)sc2c1	i	-0.03
O=C(CCc1nc(CS(=O)(=O)c2ccccc2)no1)NC1CC1	i	-0.73
O=C(NCc1ccccc1Cl)c1ccc2c(c1)nc1n2CCOC1	i	-1.63
O=C(Nc1ccc2c(c1)OCCO2)c1ccc(S(=O)(=O)c2ccc(Cl)cc2)nc1	i	1.52
CCCn1c(=O)[nH]c2cc(-c3noc(C(C)NS(=O)(=O)c4ccc(C)cc4)n3)ccc21 (stereo unspecified)	i	-0.83
O=C(c1cc2occc2c(Nc2ccc(F)cc2)n1)N1CCN(C2CCCCC2)CC1	i	-0.11
Cc1nn(Cc2c(F)cccc2Cl)c(=O)c2noc(C)c12	i	-0.59
Cc1cc(NC(=O)c2ccc(OC(C)C)cc2)n(-c2ncnc3c2cnn3-c2ccccc2)n1	i	0.38
CCOC(=O)c1cc2ccsc2n1CC(=O)Nc1ccccc1C(=O)OC	i	0.37
O=C(c1cnc(N2CCN(c3ncccn3)CC2)c2ccccc12)N1CCN(c2ccccn2)CC1	i	0.4
O=C1Nc2ccccc2Oc2ccc(S(=O)(=O)N3CCc4ccccc4C3)cc21	i	0.05

Further records
SMILES	Choline anaer gr	Choline anaer gr early
CC1CCc2c(sc(NC(=O)c3nc(-n4cnnc4)ccc3Br)c2C#N)C1 (stereo unspecified)	i	-1.44
O=C(Nc1ccc(O)cc1)c1nc(-n2cnnc2)ccc1Br	i	-1.52
Nc1ccc(SCc2nnc(-c3ccc4c(c3)OCO4)o2)cc1	i	-0.71
CC(=O)N1CCC(C(=O)NCc2ccccc2)(N(Cc2ccccc2F)C(=O)c2ccc(C)cc2)CC1	i	-0.49
COc1ccc(NC(=O)c2nnc(SCC(=O)NCc3ccccc3)s2)cc1	i	0.91
O=C(NC1CC1)c1ccc2c(=O)nc3c(-c4ccc(Cl)cc4)n[nH]n3c2c1	i	0.99
CCn1c(CN(c2ccc(F)cc2)S(C)(=O)=O)nnc1SCC(=O)c1cc(C)n(CC)c1C	i	0.03
COc1ccc(CN2CCCn3nc(-c4ccc(OC)c(OC)c4)cc3C2)c(OC)c1	i	0
O=C1Oc2ccccc2C2c3sc(=O)[nH]c3SC(c3cccs3)C12 (stereo unspecified)	i	-0.08
COc1cccc(Cn2ncc3ccc(C(=O)NCc4cccc(Cl)c4)cc32)c1	i	2.01
Cc1cccc(C(=O)Nc2ccc(OCc3cc(=O)n4[nH]cnc4n3)cc2)c1	i	-1.35
CCNc1cc(C)nc(Nc2ccc(NS(=O)(=O)c3ccc(Br)cc3)cc2)n1	i	-4.79
O=C(Nc1ccc(F)cc1)Nc1cccc(-c2noc(-c3ccoc3)n2)c1	i	0.84
NC(=O)c1ccc(-c2nc(-c3ccc4c(c3)OCCO4)c(-c3ccccn3)[nH]2)cc1	i	0.54&-0.38
O=C(NCc1c(-c2ccccc2)nc2n1CCS2)c1cccnc1	i	-0.56
CCOC(=O)CCc1nc(N2CCCCC2)c2c(-c3ccccc3)noc2n1	i	-0.79
O=c1c(S(=O)(=O)N2CCCC2)cccn1Cc1ccccc1Cl	i	1.3
O=C(O)c1cc(N2CCN(c3ccccn3)CC2)ccc1NC(=O)C1CCCC1	i	0.37
Cc1sc2ncnc(NC3CCCCC3)c2c1S(=O)(=O)N1CCCCC1	i	2.07
Cc1ccc(C)c(NC(=O)N2CCC(C)(C(=O)NCc3ccc4c(c3)OCO4)CC2)c1	i	-1.28
CCCCN1C(=O)c2cc(C(=O)NCCC3=CCCCC3)nn2CC1(C)C(=O)NC1CCCC1 (stereo unspecified)	i	-0.87
CCOC(=O)C1CCN(C(=O)CCCc2cn(Cc3ccc(C)cc3)c3ccccc23)CC1	i	2.86
Cc1nn(CCCC(=O)N2CCN(c3ccccn3)CC2)c(=O)c2cc3sccc3n12	i	0.71
O=S(=O)(c1ccc2c(c1)OCCO2)N1CCn2cccc2C1c1ccc(Br)cc1 (stereo unspecified)	i	0.39
Cc1nc(OCC(=O)Nc2ccc(F)cc2F)c2ccccc2n1	+	-0.17*
Continued:
SMILES	Choline anaer gr	Choline anaer gr early
O=C(CCc1nc(CS(=O)(=O)c2ccccc2)no1)NCCCN1CCOCC1	i	-0.09
Cc1cc2nc(CSc3nnc(-c4ccc(F)cc4)o3)cc(=O)n2o1	i	0.28
CCOc1ccc2nc(NC(=O)CC)sc2c1	i	2.23
CCc1onc(C)c1C1CCCN1C(=O)c1nn(C)cc1Cl (stereo unspecified)	i	-0.23
Cc1cc(C)c(S(=O)(=O)Nc2cnc(N(CC(C)C)CC(C)C)c(C(=O)O)c2)cc1C	i	-0.82
Cc1cc(C(=O)N2CCCC2c2ccc(F)cc2)on1 (stereo unspecified)	i	-2.3
Cc1nn(C(C)C(=O)NC2CCCC2)c(=O)c2c(-n3cccc3)n(-c3ccccc3)nc12 (stereo unspecified)	i	-2.13
Cc1nc(S(=O)(=O)Nc2cccc(F)c2)cn1C	i	-0.98
O=C(Nc1ccc(Cl)cc1)NC(c1ccc(F)cc1)c1nnc(-c2ccccc2)o1 (stereo unspecified)	i	1.44
COC(=O)c1sccc1NC(=O)NCc1cccn1Cc1cccc(F)c1	i	0.79
Cc1noc(C)c1C1CCCN1C(=O)c1ccnn1C (stereo unspecified)	i	-0.31
Cc1ccc(C(=O)Nc2c(C)nc3ccccn3c2=O)cc1	i	-0.41
CC(C)c1cc(C2CCCN2Cc2cc(Br)ccc2O)on1 (stereo unspecified)	i	-1.28
